# HIV Env fusion – HIV envelope-mediated fusion inhibition. HeLa-JRFL Env/CEM21 cell fusion, luciferase. inhibition, % at 12.3 µM. 360,000 tested, 1.1% active. AID 651610;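 active means mean replicate inhibition score of at least 50 and every replicate individually at or above 50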;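 further: 0% = plate neutral controls and 100% = maraviroc near 300 nM; one replicate is shown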
# MT1-MMP act inh – inhibitors of human MT1-MMP activation. P50281. HT1080 RFP-PRO-GFP cells, GFP/RFP ratio fluorescence, overnight; percent of plate control window, DMSO zero. GFP/RFP ratio change, % at 20 µM. 360,000 tested, 0.061% active;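 active means GFP/RFP ratio change of at least 30% with cell ATP level not reduced by more than half and red fluorescence within 50% of control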; further: strong numbers were not always called active
#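 Assay system: HT1080 RFP-PRO-GFP cells. Benchmarks: DMSO vehicle wells and RFP-L50D-GFP reporter cell wells. Times: overnight cell settling, then overnight compound exposure, 37 °C, 5% CO2. Compound: 20 µM single dose, 1% DMSO. Read-out basis: GFP/RFP fluorescence ratio.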
# MT1-MMP act inh RFP – second read-out of MT1-MMP act inh, no call of its own (marks repeat the call); RFP signal change, %; measured here: RFP expression control read;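 0 = vehicle wells; hits needed this value within 50% of zero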
# * = called active by the depositor. The list is partial; count on the stated rates, not on these rows.
HIV Env fusion	MT1-MMP act inh	MT1-MMP act inh RFP	mol
11	-1	1	COc1ccc(S(=O)(=O)N2CCCCC2)cc1NC(=O)C1CC(=O)N(Cc2ccco2)C1 (stereo unspecified)
2	-1	-14	O=[N+]([O-])c1ccc2[nH]c(=S)sc2c1
-89	2	3	O=C1c2cccc3cccc(c23)C(c2nc3ccccc3[nH]2)N1C1CC1 (stereo unspecified)
-34	13	8	CNC(=O)OCc1cocc1COC(=O)NC
-253	1	-7	CC(C)C[C@@H]1O[C@H](CCc2ccccc2)Cc2[nH]c(=S)[nH]c(=O)c21
-12	6	5	Cc1ccccc1-c1cnc(C(O)c2ccc(F)cc2C)[nH]1 (stereo unspecified)
-14	-6	-5	Cc1cccc(C)c1NC(=O)C(c1ccccc1)N1CCC(c2ccccc2)CC1 (stereo unspecified)
-5	-12	-11	O=C1c2ccccc2C(=O)N1CCCCNc1ccccc1
-4	-7	-7	CC(=O)Nc1sc(C)c(C)c1C(=O)OCC(=O)N(CCC#N)c1cc(C)cc(C)c1
7	0	2	COC(=O)[C@@]12C[C@@H](CC(=O)N3CCN(C(=O)c4ccco4)CC3)C(=O)N(Cc3ccccc3)C1=CCC(C)(C)C2
-88	5	5	O=C(NC1CCCCC1)C1c2ccccc2OCC(=O)N1Cc1ccc2c(c1)OCO2 (stereo unspecified)
3	3	1	CCOC(=O)[C@]12CCCC=C1N(Cc1ccc3c(c1)OCO3)C(=O)[C@H](CC(=O)NCc1ccc(OC)c(OC)c1)C2
-9	-1	1	Cc1ccc(S(=O)(=O)C[C@@H]2OC[C@H](CO)N2S(=O)(=O)c2ccc(C)cc2)cc1
26	2	3	COC(=O)[C@]12CCCCC=C1N(Cc1ccco1)C(=O)[C@H](CC(=O)NCc1ccccc1)C2
1	0	3	O=C(O)C1CC2C3CC(C(=O)O)C(C3)C2C1 (stereo unspecified)
-3	4	10	N#Cc1ccccc1NC(=O)C1CCCO1 (stereo unspecified)
-6	1	1	CC(C)CCN1C(=O)CSCC1(C)C(=O)NCc1ccccc1 (stereo unspecified)
-51	-2	-7	COc1ccc(NC(=O)C(c2ccnc3ccccc23)n2c(=O)c(-c3ccccc3)nc3ccccc32)cc1 (stereo unspecified)
-37	29	3	COc1cc(C2c3cc4c(cc3CC3COC(=O)N32)OCO4)cc(OC)c1OC (stereo unspecified)
-25	6	1	Cc1cccc(C(=O)NNC(=O)C2CCCCC2)c1O
-1	3	4	CC(C)(C)N1C(=O)c2ccccc2NC(=O)C1C(=O)NCCc1ccccc1 (stereo unspecified)
-11	4	1	CC(=O)Nc1ccc2c(c1)C(=O)c1cccc(C(=O)O)c1-2
7	-1	1	Cc1ccc(-c2csc(C(C#N)=C(O)CN3CCN(C(=O)c4ccco4)CC3)n2)cc1
28	-4	-4	C[C@@H]1O[C@H](CCc2cccc(Cl)c2)CC2=C1C(=O)OC(C)(C)O2
33	14	-24	NC(=O)c1nnn(Cc2cc(Cl)c(C(=O)c3ccc(Cl)cc3)c(Cl)c2)c1N
-8	4	-12	CC(C)C[C@H]1CN([C@@H](Cc2ccccc2)CN2CCCC2CN2C(=S)NC[C@@H]2Cc2ccccc2)C(=S)N1CC1CCCCC1 (stereo partly specified)
-39	-1	0	NN=C(NN=Cc1ccccc1)c1ccccc1
0	-1	3	Cn1c(=O)c2[nH]c(C=Cc3ccc4c(c3)OCO4)nc2n(C)c1=O
-1	-5	3	O=C(O)c1ccc(S(=O)(=O)NN=Cc2c[nH]c3ccccc23)cc1
27	2	-1	CCOC(=O)[C@]12CCC=C1N(CCC1=CCCCC1)C(=O)[C@H](CC(=O)NCc1cccc(C(F)(F)F)c1)C2

# A stretch taken from the entries so far:
HIV Env fusion	MT1-MMP act inh	MT1-MMP act inh RFP	mol
-12	6	5	Cc1ccccc1-c1cnc(C(O)c2ccc(F)cc2C)[nH]1 (stereo unspecified)
-14	-6	-5	Cc1cccc(C)c1NC(=O)C(c1ccccc1)N1CCC(c2ccccc2)CC1 (stereo unspecified)
-5	-12	-11	O=C1c2ccccc2C(=O)N1CCCCNc1ccccc1
-4	-7	-7	CC(=O)Nc1sc(C)c(C)c1C(=O)OCC(=O)N(CCC#N)c1cc(C)cc(C)c1
7	0	2	COC(=O)[C@@]12C[C@@H](CC(=O)N3CCN(C(=O)c4ccco4)CC3)C(=O)N(Cc3ccccc3)C1=CCC(C)(C)C2
-88	5	5	O=C(NC1CCCCC1)C1c2ccccc2OCC(=O)N1Cc1ccc2c(c1)OCO2 (stereo unspecified)
3	3	1	CCOC(=O)[C@]12CCCC=C1N(Cc1ccc3c(c1)OCO3)C(=O)[C@H](CC(=O)NCc1ccc(OC)c(OC)c1)C2
-9	-1	1	Cc1ccc(S(=O)(=O)C[C@@H]2OC[C@H](CO)N2S(=O)(=O)c2ccc(C)cc2)cc1
26	2	3	COC(=O)[C@]12CCCCC=C1N(Cc1ccco1)C(=O)[C@H](CC(=O)NCc1ccccc1)C2
1	0	3	O=C(O)C1CC2C3CC(C(=O)O)C(C3)C2C1 (stereo unspecified)
-3	4	10	N#Cc1ccccc1NC(=O)C1CCCO1 (stereo unspecified)
-6	1	1	CC(C)CCN1C(=O)CSCC1(C)C(=O)NCc1ccccc1 (stereo unspecified)
-51	-2	-7	COc1ccc(NC(=O)C(c2ccnc3ccccc23)n2c(=O)c(-c3ccccc3)nc3ccccc32)cc1 (stereo unspecified)
-37	29	3	COc1cc(C2c3cc4c(cc3CC3COC(=O)N32)OCO4)cc(OC)c1OC (stereo unspecified)
-25	6	1	Cc1cccc(C(=O)NNC(=O)C2CCCCC2)c1O

# Later entries:
HIV Env fusion	MT1-MMP act inh	MT1-MMP act inh RFP	mol
-65	2	4	O=C1NC[C@@H](CCCCN2C[C@H](Cc3ccccc3)N(CCc3ccccc3)C(=O)C2=O)N(CCc2ccccc2)C1=O
-15	-6	1	O=C(Nc1ccc2c(c1)OCCO2)C(c1ccncc1)n1c(=O)c(-c2ccco2)nc2ccccc21 (stereo unspecified)
-11	2	3	COc1ccccc1CNC(=O)C[C@@H]1CC[C@H]2[C@@H](COC[C@H](O)CN2Cc2ccccc2)O1
-17	3	2	CC1=C(C(=O)N2CCCCCC2)CC(CC(=O)NCCN2CCOCC2)C(=O)N1CCCN1CCCC1=O (stereo unspecified)
5	2	2	CCCCNC(=O)c1nc(-c2cccc(C(F)(F)F)c2)oc1-c1ccc(OC(F)(F)F)cc1
8	-3	2	CCOC(=O)N1C2CCC(C2)N1C(=O)OCC
22	6	-6	c1ccc(COc2ncnc3c2ncn3CCCN2CCN(c3ncccn3)CC2)cc1
-8	-5	-18	Cc1ccc2ccc(C(Nc3ccccc3)c3ccc(C(C)C)cc3)c(O)c2n1 (stereo unspecified)
118*	-2	-11	CCCCCCCCN1C(=O)[C@H](CC(=O)NCc2ccc(OC)c(OC)c2)C[C@@]2(C(=O)OC)CCCCC=C12
-37	-1	-4	Cc1ccc(S(=O)(=O)Nc2ccc(Cl)cc2O)cc1
-11	-1	0	Cc1ncc(NS(=O)(=O)c2ccc(N)cc2)nc1C
-1	-5	-3	CCOC(=O)c1sc(=S)[nH]c1C
9	-2	-10	C=CCN1C(c2ccc(Br)cc2)=CS/C1=C(\C#N)c1nnc(N2CCOCC2)n1-c1ccccc1
-67	2	5	O=C(NC1CCCC1)C1c2ccccc2OCC(=O)N1Cc1ccco1 (stereo unspecified)
19	2	0	COC(=O)[C@]12CCCCC=C1N(CCC1=CCCCC1)C(=O)[C@H](CC(=O)NCCCN1CCCC1=O)C2
15	0	4	COc1ccc(CN2C(=O)CCC2(C)c2nnnn2C2CCCCC2)cc1 (stereo unspecified)
-6	-2	-2	CC(C)N(C)C1=CC(=O)C(N(C)C(C)C)=CC1=O
-15	6	10	CC1(C(=O)NS(=O)(=O)c2ccccc2Cl)CCN1C(=O)Cc1cccs1 (stereo unspecified)
-12	2	3	CN(Cc1ccccc1)C(=O)[C@@H]1CCCN1C(=O)[C@@H]1CCCN1C(=O)c1cccc2ccccc12
2	1	4	Cc1ccc(Cc2c(C3CCCCC3)nc3c(C)cc(Br)cn23)cc1
7	-1	-2	O=S(=O)(c1ccccc1)N(c1ccccc1)S(=O)(=O)c1ccccc1
4	0	-1	COc1ccc(C2=Nc3ccccc3N(C(=O)c3ccc(C(F)(F)F)cc3)C2C(=O)Nc2ccc3c(c2)OCCO3)cc1 (stereo unspecified)
-25	6	-31	C=C1C(=O)C23C(O)C1CCC2C12CCCC(C)(COC(C)=O)C1C(O)C3(O)OC2 (stereo unspecified)
11	6	-3	CC1(c2nnnn2Cc2ccccc2)CCC(=O)N1CC1CCCCC1 (stereo unspecified)
-5	-3	-1	O=C(NCc1ccccc1)C(C1CC1)n1c(=O)c(-c2cc3ccccc3[nH]2)nc2ccccc21 (stereo unspecified)
-63	1	-1	CCCCOCCCNC(=O)C[C@@H]1C[C@@]2(C(=O)OC)CCCCC=C2N(CCc2ccc(OC)c(OC)c2)C1=O
-100	0	-4	N#CC(=Cc1ccncc1)c1ccccc1
-239	1	1	COc1cc(N2C(=O)C=CC2=O)ccc1N1C(=O)C=CC1=O
11	-1	-5	COC(=O)[C@@]12C[C@@H](CC(=O)NCc3cccc(C(F)(F)F)c3)C(=O)N(CCc3ccc(OC)c(OC)c3)C1=CCC(C)(C)C2
12	-1	5	CC(C)(C)N1C(=O)c2ccccc2NC(=O)C1C(=O)Nc1ccc(N2CCOCC2)cc1 (stereo unspecified)
1	-2	2	CCOC(=O)[C@]12CCC=C1N(Cc1ccco1)C(=O)[C@H](CC(=O)NCCCCc1ccccc1)C2
8	2	5	Cc1nn(C2CC(O)C(O)C(CO)O2)c(=O)[nH]c1=O (stereo unspecified)
1	-2	-6	Nc1sc(-c2ccccc2)cc1C(=O)NCCc1c[nH]c2ccccc12
2	10	10	Oc1c(N=Nc2nn[nH]n2)ccc2ccccc12
9	-4	0	CCOC(=O)Cc1c(-c2cccc(Br)c2)nc2c3ccccc3ccn12
1	10	-2	CCOC(=O)[C@]12CCCC=C1N(Cc1ccc3c(c1)OCO3)C(=O)[C@H](CC(=O)NCCc1ccccc1OC)C2
12	1	0	O=C1NC[C@@H](CCCCN2CCN(CCC3CCCCC3)C(=O)C2=O)N(CC2CCCCC2)C1=O
-3	-3	-6	COc1ccc(CCC(=O)N2c3ccccc3N=C(c3ccc(C(F)(F)F)cc3)C2C(=O)NC(C)C)cc1 (stereo unspecified)
-7	2	6	O=C1NC[C@@H](CCCCN2C[C@H](Cc3ccccc3)N(CCc3ccc(O)cc3)C(=O)C2=O)N(CC2CCCCC2)C1=O
-6	-4	1	CC(=O)Nc1ccc(CN(C)c2c(C)nc3ccc(C(=O)N(C)Cc4ccco4)cn23)cc1
-7	-11	2	COc1ccc(C(C(=O)NCc2ccccc2)n2c(=O)c(-c3ccco3)nc3ccccc32)cc1 (stereo unspecified)
-131	3	3	O=C(NCc1ccc(F)cc1F)[C@@H]1CCCN1C(=O)[C@@H]1CCCN1C(=O)c1cccs1
-16	-3	-7	CCOC(=O)[C@]12CCCC=C1N(Cc1ccc(Cl)cc1Cl)C(=O)[C@H](CC(=O)NCc1ccccc1)C2
4	4	-1	CCOc1ccccc1NC1=C(OC)C(=O)C(Nc2ccccc2OCC)=C(OC)C1=O
-22	2	3	COc1cccc(-c2nc3nc(C)cc(C)n3c2Nc2ccc3c(c2)OCCO3)c1
-2	2	3	OCC(O)C(O)CC1SCCS1 (stereo unspecified)
-10	-3	1	C[C@]12CC[C@H](O)CC1=C[C@H](O)C1C2CC[C@@]2(C)C1CC[C@@]2(O)C#Cc1ccc(CN)cc1 (stereo partly specified)
4	2	-1	COc1ccc(CCN2C(=O)C=CC2=O)cc1OC
-6	3	3	CCOC(=O)CC1(CCc2ccccc2)Oc2ccccc2O1
15	3	-7	COC(=O)C1=CN(c2ccc(C(C)(C)C)cc2)C(N)=C(C#N)C1c1ccc(OC)cc1 (stereo unspecified)
-68	6	6	COc1ccc2c(C)cc(=O)oc2c1OCC(O)CN1CCOCC1 (stereo unspecified)
-8	5	6	Cc1cccc(C)c1NC(=O)C(C1CC1)n1c(-c2ccc(=O)[nH]c2)nc2ccccc21 (stereo unspecified)
10	2	-6	O=C1Nc2ccccc2-c2nnnn2C1N1CCC(Cc2ccccc2)CC1 (stereo unspecified)
-11	1	-8	COc1ccc(N2CC(C)(C)[C@H](CC(=O)Nc3ccc(Br)cc3)C2=O)cc1
4	2	8	CSCc1cc(C(=O)NC2CC2)c(N)s1
-4	0	-1	CCOc1ccc(C(=O)NCC(=O)Nc2ccc3c(c2)OCO3)cc1OCC
1	-3	0	Cc1cc2c(cc1C)-n1nnnc1C(N1CCN(c3ncccc3C#N)CC1)C(=O)N2 (stereo unspecified)
-20	0	1	O=S1(=O)CC(N2CCSCC2)CN1Cc1cn(Cc2cccc(Cl)c2)nn1 (stereo unspecified)
-10	2	4	N#Cc1cccc(C(=O)C(=O)N2CCCN(Cc3ccc(F)cc3)CC2)c1
-10	-4	1	COC(=O)[C@]1(Sc2ccc(C)cc2)CC(=O)N[C@@H]1c1ccco1

# The results go on.
HIV Env fusion	MT1-MMP act inh	MT1-MMP act inh RFP	mol
5	1	1	CCN(CC(=O)NCc1cccs1)C(=O)Cc1ccc(Cl)c(Cl)c1
4	1	-1	COc1ccc(C=C2SC(=S)NC2=O)c(OC)c1OC
-7	-1	1	O=C(O)CC(CC(=O)O)n1cccc1
4	-1	2	CCCCNC(=O)c1nc(C2CCNCC2)oc1-c1cccc(C(F)(F)F)c1
-8	3	2	COc1ccc(S(=O)(=O)N2CCN(C(=O)c3ccc(=O)[nH]n3)CC2)cc1OC
3	1	-9	CC(=NNC(=S)N1CCN(C2CCCCCC2)CC1)c1ccccn1
27	6	2	CC(C)C[C@H]1COc2cc(N3CC[C@@H](O)C3)ccc2S(=O)(=O)N1
